AF4-AF9 inh = inhibitors of AF4 peptide binding to AF9, primary screen, biochemical, AlphaScreen, biotin-AF4 peptide, FLAG-AF9, single point; inhibition, % at 10 µM; actives 0.47% (n = 350,000);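 active means every replicate reaching a set inhibition limit, whatever the replicate mean, cut at about 25% in these data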;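 further: 0% = plate neutral control median and 100% = total signal loss; the record names both 10 and 1 µM as test concentration; the first replicate is given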
Target sequence (P42568 whole entry, looked up): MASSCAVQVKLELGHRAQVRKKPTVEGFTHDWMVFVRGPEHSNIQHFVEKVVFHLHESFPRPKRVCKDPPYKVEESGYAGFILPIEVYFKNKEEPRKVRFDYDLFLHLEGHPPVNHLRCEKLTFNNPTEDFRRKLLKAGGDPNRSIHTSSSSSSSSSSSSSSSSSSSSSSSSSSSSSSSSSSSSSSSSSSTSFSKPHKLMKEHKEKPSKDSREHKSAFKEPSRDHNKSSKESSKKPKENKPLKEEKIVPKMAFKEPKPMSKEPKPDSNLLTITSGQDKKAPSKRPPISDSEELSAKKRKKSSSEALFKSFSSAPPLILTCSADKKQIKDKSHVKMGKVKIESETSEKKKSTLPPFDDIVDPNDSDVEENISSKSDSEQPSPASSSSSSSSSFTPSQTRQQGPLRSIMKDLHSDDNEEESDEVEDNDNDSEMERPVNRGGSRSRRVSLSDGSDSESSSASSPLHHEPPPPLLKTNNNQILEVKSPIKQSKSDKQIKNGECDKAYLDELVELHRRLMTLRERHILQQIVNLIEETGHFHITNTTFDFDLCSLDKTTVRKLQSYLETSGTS
rRNA inh HTS = reduced GFP signal of wild-type E. coli, primary screen, bacterial rRNA inhibitor project, GFP/RFP fluorescence, OD600, single point. E. coli WT GFP vs humanized-ribosome RFP mutants, 24 h; active compounds read low; DMSO median 0, no signal -100. GFP signal change (wild-type ribosome), % (no concentration beside the values). actives 1.6% (n = 350,000);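 active means significant combined selectivity score with lowered wild-type GFP, culture density cut under 30%, mutant RFP and density less affected; inactive means any of these conditions unmet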; further: one replicate is shown; some compounds called inactive have numbers as strong as hits
FGF22 binding = binders of human FGF22 protein, primary screen, FGF22 synaptogenesis inhibitor project, biophysical, thermal shift, single point | AID 651658, 2012 | Fibroblast growth factor 22 (Homo sapiens), Q9HCT0 | recombinant FGF22 thermal shift, SYPRO orange fluorescence; percent of sucrose octasulfate shift, DMSO zero | calls only at 9.99 µM | actives 1.5% (n = 340,000);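 active means melting point raised past a set limit in the mean and every replicate; three in four hits are not shown here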
Target sequence (Q9HCT0 whole entry, looked up): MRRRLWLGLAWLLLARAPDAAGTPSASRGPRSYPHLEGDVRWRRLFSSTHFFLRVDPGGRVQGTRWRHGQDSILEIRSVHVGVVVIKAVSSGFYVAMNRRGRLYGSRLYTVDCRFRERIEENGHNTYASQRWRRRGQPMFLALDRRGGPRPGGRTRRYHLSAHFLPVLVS
rRNA inh HTS OD600 = also measured in rRNA inh HTS; calls as there; OD600 change, %; measured here: OD600 growth;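 optical density of the mix in the first replicate; 0 = DMSO median and -100 = no signal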
rRNA inh HTS RFP = recorded beside rRNA inh HTS, whose call it bears; RFP signal change, %; measured here: RFP humanized mutant strains;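 first replicate; 0 = DMSO median and -100 = no signal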
* = called active by the depositor; i = inactive; & = joins results of further samples.

Values run as follows: rRNA inh HTS	rRNA inh HTS RFP	rRNA inh HTS OD600	AF4-AF9 inh	FGF22 binding
CCc1sc(N2[C@H](C#N)[C@H](c3ccccc3-c3cccc(C)c3)[C@H]2CO)nc1C
→ 6.5	31.3	-10.2	-3.2	i
COCC(=O)N[C@@H]1CC[C@@H](CC(=O)NCc2ccccc2OC)O[C@@H]1CO
→ 0.4	-1.0	4.8	-13.0	i
Cc1cccc(C(O)c2ncc(-c3ccc(Cl)cc3)[nH]2)c1C (stereo not given)
→ -19.9	-0.7	-35.2	-4.5	i
C[C@@H]1CCCCO[C@@H](CN(C)S(=O)(=O)c2ccc(F)cc2)[C@H](C)CN([C@H](C)CO)C(=O)c2cc(NC(=O)NC3CCCCC3)ccc2O1
→ 5.6	-0.8	6.7	-1.8	i
C[C@H](CO)N1C[C@H](C)[C@@H](CN(C)C)Oc2cc(-c3cccc(F)c3)ccc2S1(=O)=O
→ -3.4	-3.8	-11.5	1.6	i
CC(C)CC1C(=O)N(Cc2cn(CCC3OCCO3)nn2)CCS(=O)(=O)N1Cc1ccc(-c2cccc(CO)c2)cc1 (stereo not given)
→ -5.6	1.5	-10.9	-0.5	i
C[C@@H]1CN([C@@H](C)CO)C(=O)c2cc(C3=CCCC3)cnc2O[C@H]1CN(C)C(=O)CN1CCOCC1
→ 4.3	-0.6	2.2	-2.8	i
Cc1cccc(C)c1C(O)c1ncc(-c2ccccc2C(F)(F)F)[nH]1 (stereo not given)
→ -5.6	0.5	-24.0	1.2	i
COCC(=O)N1CCCCN2[C@H](CO)[C@@H](c3ccc(C#Cc4cccnc4)cc3)[C@@H]2C1
→ -0.4	-0.6	6.0	-5.9	i
CC1CCCC(=NNc2ccc3ccccc3n2)C1 (stereo not given)
→ -2.2	4.1	-0.2	-14.9	i
Cc1noc(C)c1S(=O)(=O)N(C)C[C@H]1Oc2ccc(NC(=O)CCCN(C)C)cc2C(=O)N([C@@H](C)CO)C[C@H]1C
→ 0.7	0.0	4.4	-0.5	i
CCC(=O)N1CC2(CCN(Cc3cncnc3)CC2)c2c([nH]c3cc(OC)ccc23)[C@H]1CO
→ -1.0	-2.0	-0.4	1.2	i
COCC(=O)N1CC2(C1)[C@H](c1ccccc1)[C@H](CO)N2CCC(F)(F)F
→ 1.2	0.7	11.1	-1.4	i
CCCc1ccc(C(O)c2ncc(-c3ccccc3)[nH]2)cc1 (stereo not given)
→ 7.6	7.3	16.3	-2.9	i
O=C(N[C@@H]1CC[C@H](CCNC(=O)C2CCCC2)O[C@@H]1CO)c1ccncc1
→ 0.9	-0.9	1.6	-0.2	i
CC(C)NC(=O)Nc1ccc2c(c1)C(=O)N([C@H](C)CO)C[C@H](C)[C@H](CN(C)C(=O)NC1CCCCC1)OCCCC[C@H](C)O2
→ -3.5	-1.7	-6.5	-1.4	i
CCCS(=O)(=O)NC(=O)C1(C)CCN(C(=O)c2cncc(Br)c2)C1 (stereo not given)
→ 1.1	-0.4	9.1	2.8	i
CCS(=O)(=O)N1CCCCN2[C@@H](CO)[C@@H](c3ccc(C4=CCCC4)cc3)[C@@H]2C1
→ 3.6	2.8	8.7	3.4	i
C[C@@H]1CCCCO[C@H](CN(C)S(=O)(=O)c2cn(C)cn2)[C@H](C)CN([C@@H](C)CO)C(=O)c2cc(NC(=O)c3ccccc3)ccc2O1
→ 0.8&-2.4	1.0&0.8	0.1&4.3	0.6&-4.7	i
C[C@@H]1CCCCO[C@H](CN(C)C(=O)NC2CCCCC2)[C@H](C)CN([C@@H](C)CO)C(=O)c2cc(NS(=O)(=O)c3ccc(Cl)cc3)ccc2O1
→ 3.1	2.1	12.1	-3.8	i

(cont.)
Values run as follows: rRNA inh HTS	rRNA inh HTS RFP	rRNA inh HTS OD600	AF4-AF9 inh	FGF22 binding
C[C@@H]1CN([C@H](C)CO)C(=O)Cc2cc(NS(=O)(=O)c3cn(C)cn3)ccc2O[C@@H]1CN(C)C
→ -1.1	-4.1	10.0	0.3	i
COc1cccc(-c2cnc(C(O)c3cccc(F)c3)[nH]2)c1 (stereo not given)
→ 9.6	-0.3	14.4	6.6	i
CN(C)CC(=O)N[C@@H]1CC[C@H](CCn2cc(C3CCCC3)nn2)O[C@@H]1CO
→ 1.0	1.1	-2.5	-2.5	i
COCC(=O)Nc1ccc2c(c1)C(=O)N(C)C[C@@H](OC)[C@@H](C)CN(C(=O)COC)[C@@H](C)CO2
→ 1.0	-1.4	-2.7	4.0	i
OC(c1cccc(Cl)c1)c1nc(/C=C/c2ccc(C(F)(F)F)cc2)cs1 (stereo not given)
→ 5.4	-3.5	7.1	1.8	i
C[C@H](O)C#Cc1ccc2c(c1)O[C@H](CN(C)C(=O)c1ccccc1)[C@@H](C)CN([C@H](C)CO)S2(=O)=O
→ 2.3	-0.6	5.9	-3.8	i
CCN1[C@H](C(=O)NCc2cccc(OC)c2)[C@@H](CO)[C@@H]2Cn3c(ccc(C4=CCCCC4)c3=O)[C@@H]21
→ -8.6	4.6	-12.1	1.5	i
CNC[C@@H]1OCCCC[C@@H](C)Oc2ccc(NC(=O)Nc3ccccc3)cc2C(=O)N([C@@H](C)CO)C[C@H]1C
→ 2.1	-1.7	-1.1	3.2	i
Cc1noc(C)c1S(=O)(=O)Nc1ccc2c(c1)CC(=O)N([C@@H](C)CO)C[C@@H](C)[C@H](CN(C)CC1CCCCC1)O2
→ 0.6	2.2	-9.4	5.3	i
O=S(=O)(c1ccccc1)N1CCCCN2[C@H](C1)[C@H](c1ccc(-c3cncnc3)cc1)[C@@H]2CO
→ -2.6	-2.9	-3.0	-2.6	i
C[C@@H]1CN([C@H](C)CO)C(=O)CCCn2nncc2CO[C@H]1CN(C)Cc1cccc(O)c1
→ 9.2&-0.6	0.2&0.8	15.1&-5.9	1.1&-1.5	i
O=C(NCC[C@@H]1CC[C@@H](NC(=O)C2CCOCC2)[C@H](CO)O1)c1ccc(F)cc1
→ 3.2	-4.2	6.3	-7.9	i
Cc1ccc(S(=O)(=O)Nc2cccc3c2O[C@@H](CN(C)CC2CC2)[C@H](C)CN([C@@H](C)CO)C3=O)cc1
→ 0.8	-0.3	10.6	-4.8	i
O=C(NCC1CC1)[C@H]1[C@H](CO)[C@H]2Cn3c(cccc3=O)[C@H]2N1CCC(F)(F)F
→ 0.7	-0.3	-8.8	-0.6	i
C[C@H](CO)N1C[C@H](C)[C@H](CN(C)C(=O)c2ccccc2)Oc2ncc(/C=C/c3ccccc3)cc2C1=O
→ -8.6	6.4	-3.1	0.7	i
COc1ccc(-c2cc3nc(NCCNC(C)=O)n(C)c(=O)c3s2)c(C)c1
→ -7.0	0.2	-13.2	-0.4	i
C[C@@H]1CN([C@H](C)CO)C(=O)c2cc(-c3cncnc3)cnc2O[C@H]1CN(C)C(=O)CN1CCOCC1
→ 6.4	-0.3	6.9	-2.2	i
CN1CCC(N2CCN(C3CN(Cc4cn(Cc5cccc(C(F)(F)F)c5)nn4)S(=O)(=O)C3)CC2)CC1 (stereo not given)
→ 12.0	0.8	11.7	0.5	i
C[C@@H]1CN([C@H](C)CO)C(=O)c2cc(NS(=O)(=O)c3ccc(Cl)cc3)ccc2O[C@@H](C)CCCCO[C@@H]1CN(C)S(=O)(=O)c1cn(C)cn1
→ 1.6	-1.7	0.2	-13.4	i
C[C@H](CO)N1C[C@H](C)[C@H](CN(C)Cc2ccncc2)OCCCC[C@H](C)Oc2ccc(NC(=O)c3ccncc3)cc2C1=O
→ -3.8	0.1	9.4	0.7	i

Further structures:
Values run as follows: rRNA inh HTS	rRNA inh HTS RFP	rRNA inh HTS OD600	AF4-AF9 inh	FGF22 binding
CC1CCCN(c2cccc3c2S(=O)(=O)N(Cc2ccc(F)cc2)[C@@H](C)[C@H](c2ccccc2)O3)C1 (stereo not given in full)
→ 6.9	4.7	3.9	-2.7	i
C[C@H](CO)N1C[C@H](C)[C@@H](CN(C)C(=O)NC2CCCCC2)OCc2cnnn2CCCC1=O
→ 3.2&0.7	-0.7&-1.7	4.4&1.9	-3.3&-1.9&0.4	i
CCOc1ccc(S(=O)(=O)N2CCC(C(=O)Nc3ccccc3N3CCCC3)CC2)cc1
→ 11.6	-0.2	16.0	3.9	i
CCCNC(=O)C[C@H]1CC[C@H]2[C@H](COc3ccc(NC(=O)c4cccs4)cc3C(=O)N2C)O1
→ -1.7	-0.6	-1.1	-0.4	i
COc1ccc2c3c(n(C)c2c1)[C@@H](CO)N(C(C)=O)CC31CCN(C(=O)Nc2ccccc2F)CC1
→ -3.9	-3.1	-2.3	2.4	i
COc1ccc(NC(=O)Nc2ccc3c(c2)C(=O)N([C@@H](C)CO)C[C@@H](C)[C@H](CN(C)Cc2ccncc2)O3)cc1
→ -2.9	-0.2	1.5	-6.3	i
C[C@H](CO)N1C[C@H](C)[C@@H](CN(C)C(=O)Nc2ccccc2)OCCCC[C@H](C)Oc2ccc(NC(=O)Cc3ccccc3)cc2C1=O
→ 0.9	-0.1	3.0	-0.1	i
COc1ccccc1NC(=O)N1C[C@@H](O)COC[C@H]2O[C@@H](CC(=O)NCc3ccccc3)CC[C@@H]21
→ -2.4	2.3	-2.6	-4.6	i
Cc1ccccc1CNC(=O)c1ccccc1SCC(=O)NCc1ccco1
→ 6.6	-0.1	5.1	-5.0	i
COc1cccc(C#Cc2cnc3c(c2)C(=O)N([C@@H](C)CO)C[C@H](C)[C@@H](CN(C)C(=O)C2CCOCC2)O3)c1
→ 2.8	-0.4	2.5	-0.4	i
Cc1ccc(S(=O)(=O)N[C@H]2CC[C@H](CCn3cc(-c4cccnc4)nn3)O[C@H]2CO)cc1
→ 1.6	0.1	3.8	-0.9	i
C[C@H](CO)N1C[C@H](C)[C@H](CN(C)C(=O)Nc2ccc3c(c2)OCO3)Oc2ccc(NC(=O)Nc3ccccc3)cc2CC1=O
→ 0.5	-3.1	-6.9	1.4	i
CC(C)C#Cc1cnc2c(c1)C(=O)N([C@@H](C)CO)C[C@H](C)[C@@H](CN(C)C(=O)c1cccc(F)c1)O2
→ -0.4	0.5	4.0	-1.1	i
COc1ccccc1CCNC(=O)c1cccc(NC(=O)CC2SC(N3CCCCC3)=NC2=O)c1 (stereo not given)
→ -21.1*	2.0*	-15.1*	-0.7	i
O=C(OCc1ccccc1)N1Cc2ccnnc2CC1c1ccccc1Br (stereo not given)
→ -33.5	-7.8	-43.1	-4.3	i
C[C@H](CO)N1C[C@H](C)[C@H](CN(C)C(=O)CN(C)C)Oc2cc(-c3cccnc3)ccc2S1(=O)=O
→ 4.5	-0.3	-5.7	-2.7	i
CC(C)C(N)c1csc(Nc2ccc(C(=O)c3ccccc3)cc2)n1 (stereo not given)
→ -7.6	5.0	-17.4	9.0	i
O=C1CCCCCN1CP(=O)(O)CN1CCOCC1
→ 27.8	-1.8	10.7	-16.7	i
CCCNC(=O)N1[C@H](CO)[C@@H]2c3ccccc3N(C(=O)Nc3ccc(F)cc3)C[C@@H]21
→ 1.4	-1.6	4.1	-1.1	i
CN(C)CCCOc1ccc(-c2cc3nc(NCc4cccnc4)n(C)c(=O)c3s2)cn1
→ 12.7	2.2	14.2	-0.9	i

Record cards, from the list above. Order of values: rRNA inh HTS	rRNA inh HTS RFP	rRNA inh HTS OD600	AF4-AF9 inh	FGF22 binding
COc1ccc(NC(=O)Nc2ccc3c(c2)C(=O)N([C@@H](C)CO)C[C@@H](C)[C@H](CN(C)Cc2ccncc2)O3)cc1 is listed with -2.9	-0.2	1.5	-6.3	i
CC(C)C#Cc1cnc2c(c1)C(=O)N([C@@H](C)CO)C[C@H](C)[C@@H](CN(C)C(=O)c1cccc(F)c1)O2 is listed with -0.4	0.5	4.0	-1.1	i
C[C@H](CO)N1C[C@H](C)[C@H](CN(C)C(=O)Nc2ccc3c(c2)OCO3)Oc2ccc(NC(=O)Nc3ccccc3)cc2CC1=O is listed with 0.5	-3.1	-6.9	1.4	i

(next part)
Values run as follows: rRNA inh HTS	rRNA inh HTS RFP	rRNA inh HTS OD600	AF4-AF9 inh	FGF22 binding
COC(=O)c1cc2c(c3c4cc(OC)ccc4n(S(=O)(=O)c4ccc(OC)cc4)c13)C(=O)N(Cc1ccco1)C2
→ -10.8	8.3	-3.7	1.2	i
CC(C)NC(=O)Nc1ccc2c(c1)CC(=O)N([C@@H](C)CO)C[C@@H](C)[C@@H](CN(C)S(C)(=O)=O)O2
→ 3.9	6.2	10.8	-2.4	i
CCC(/C=C1\Oc2ccc(OC)cc2N1C)=C\c1sc2ccccc2[n+]1CCCS(=O)(=O)[O-]
→ 9.6	1.7	15.5	-17.3	i
C[C@@H]1CN([C@H](C)CO)C(=O)c2cc(C#CCN(C)C)cnc2O[C@H]1CN(C)C
→ 4.9	0.3	5.5	-2.3	i
C[C@H]1CN([C@@H](C)CO)C(=O)Cc2cc(NC(=O)Nc3ccc(C(F)(F)F)cc3)ccc2O[C@H]1CN(C)S(=O)(=O)c1ccc(Cl)cc1
→ 5.3	-0.6	1.1	-4.3	i
COc1ccc(C(=O)Nc2ccc3c(c2)OC[C@@H](C)NC[C@@H](C)[C@H](OC)CN(C)C3=O)cc1
→ -0.1	-1.0	-0.4	-2.2	i
COC(=O)C[C@@H]1C[C@H]2c3cc(NS(=O)(=O)c4cccc(OC)c4)ccc3O[C@H]2[C@H](CO)O1
→ -3.4	-0.6	2.2	-1.0	i

Bioassay records deposited in PubChem BioAssay by Broad Institute.

These rows are one share of the data (hit frequency here may not be typical).
